Bioassay records as filed in PubChem BioAssay.
PKD1 kinase inh: inhibitors of human PKD1 kinase. Q15139. PKD1 kinase fluorescence polarization assay. inhibition, %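 (about 10 µM by stock and volumes)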. actives 0.056% (n = 200,000). AID 797;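 active = inhibition of 50% or more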;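 note: controls were vehicle for no effect and a reference inhibitor for full effect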
Target sequence (Q15139 whole entry, looked up): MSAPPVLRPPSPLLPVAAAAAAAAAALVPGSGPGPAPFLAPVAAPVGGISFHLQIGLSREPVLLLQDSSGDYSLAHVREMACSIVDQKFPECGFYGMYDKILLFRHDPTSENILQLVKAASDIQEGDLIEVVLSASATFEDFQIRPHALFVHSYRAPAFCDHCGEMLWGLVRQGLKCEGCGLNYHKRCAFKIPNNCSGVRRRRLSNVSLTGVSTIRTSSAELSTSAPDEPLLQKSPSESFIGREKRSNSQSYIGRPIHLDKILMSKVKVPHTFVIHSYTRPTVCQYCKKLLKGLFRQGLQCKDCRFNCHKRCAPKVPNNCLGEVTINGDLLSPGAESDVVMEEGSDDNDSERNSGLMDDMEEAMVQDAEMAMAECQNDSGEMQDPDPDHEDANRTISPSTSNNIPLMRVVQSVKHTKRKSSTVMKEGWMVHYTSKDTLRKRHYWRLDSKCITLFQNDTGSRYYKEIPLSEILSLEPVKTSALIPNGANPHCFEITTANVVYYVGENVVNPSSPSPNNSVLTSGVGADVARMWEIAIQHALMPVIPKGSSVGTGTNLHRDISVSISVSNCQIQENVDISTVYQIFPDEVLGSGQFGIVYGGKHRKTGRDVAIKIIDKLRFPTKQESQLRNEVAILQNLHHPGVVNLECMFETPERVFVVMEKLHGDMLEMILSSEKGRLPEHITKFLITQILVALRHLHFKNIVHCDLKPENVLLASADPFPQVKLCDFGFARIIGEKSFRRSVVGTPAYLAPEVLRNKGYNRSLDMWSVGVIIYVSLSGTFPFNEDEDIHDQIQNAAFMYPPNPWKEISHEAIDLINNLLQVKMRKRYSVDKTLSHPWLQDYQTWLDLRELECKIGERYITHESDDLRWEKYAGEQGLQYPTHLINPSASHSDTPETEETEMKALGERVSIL
RGS16-Gao: modulates binding between human RGS16 and Galphao; bead-based flow cytometry RGS16-Galphao binding, fluorescence; actives lie on both sides; actives 0.38% (n = 220,000); binding response (% of control), % at 10 µM;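 active = below 25% or above 175%, edge rows of some plates excepted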;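 note: Galphao activated by GDP with aluminum fluoride before binding; 100% = wells without compound and 0% = beads without RGS; some results beyond the cut were filed as inactive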
GALR2 agonist: activates the human galanin receptor 2 | actives 0.48% (n = 140,000) | activation, %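 (tested at 5 µM)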 | GALR2-expressing cells, agonist activation read-out;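 active = above mean plus 3 SD of all compounds, about 5% in these data, not always enough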;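 note: 0% = vehicle buffer wells and 100% = reference agonist at full effect; tested in CHO reporter cells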
Insulin prom inh: TRM-6 insulin promoter activity inhibition; TRM-6 cells (human fetal islet line), insulin promoter-eGFP reporter, imaging; reporter expression induced with tamoxifen; inhibition, % at 2 µM; actives 0.9% (n = 130,000);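 active = inhibition above the mean plus 3 SD, with well images judged a real hit on visual review, cut at about 60% in these data, passing the limit was not always enough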
HSV augment: increases HSV replication in cells; AID 1956; HSV replication augmentation in cells, fold increase; actives 0.005% (n = 220,000); maximum fold increase;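 active = peak rise of 1.5-fold or more in the series; tested in PC3 cells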;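 note: first round at 10 µM; read as green reporter fluorescence; hits show the peak of a series up to 25 µM; 1 = signal of infected wells without compound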
Insulin prom inh cell count: recorded beside Insulin prom inh, whose call it bears; normalized cell count, %; measured here: cell count, toxicity; reference of the scale not given here;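 cells exposed to compound for 48 h; stained nuclei by imaging scaled within each plate; lower means fewer cells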
HSV augment primary fold: second read-out of HSV augment, no call of its own (marks repeat the call); fold increase; compound at 10 µM; measured here: primary screen fold increase 10 uM; tested in PC3 cells;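 GFP signal in the first replicate; 1 = infected wells without compound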
* = called active by the depositor; i = inactive; nt = not tested or not shown.

SMILES	PKD1 kinase inh	RGS16-Gao	GALR2 agonist	Insulin prom inh	Insulin prom inh cell count	HSV augment	HSV augment primary fold
CCN(CC)S(=O)(=O)c1ccc2c(c1)c(=O)c(C(=O)NCc1cccs1)cn2C	8	107	0.6	-39	93	i	0.93
COc1ccccc1OCC(=O)Nc1cc(S(=O)(=O)N2CCCCC2)ccc1N1CCCCC1	-9	101	-0.9	-27	70	i	0.98
COc1cc2c(cc1OC)C(c1cccc([N+](=O)[O-])c1)NC(=O)C2 (centres undefined)	1	82	nt	nt	nt	i	0.99
CCCn1c(SCC(=O)Nc2cc(Cl)ccc2OC)n[nH]c1=O	2	100	-2.0	-44	97	i	1
COc1ccc(NC(=O)CSc2ccccn2)c([N+](=O)[O-])c1	nt	104	nt	nt	nt	i	0.87
CCN1CCCc2cc(CN(CCN3CCOCC3)C(=O)Nc3ccc(C)c(C)c3)ccc21	2	112	-3.0	50	84	i	0.96
NC(=O)Nc1ccc(F)cc1	3	101	-3.5	28	158	i	0.97
COCCNCCCOc1ccc(Br)cc1Cl	-7	115	0.3	-8	98	nt	nt
COc1cccc(CNC(=O)CNC(=S)N(Cc2ccccc2)Cc2ccccc2F)c1	0	79	nt	4	112	i	1.1
CCOC(=O)C1(C)NC(c2cc(OC)c(OC)c(OC)c2)C2C(=O)N(CC)C(=O)C21 (centres undefined)	3	101	-0.5	nt	nt	i	0.85
S=C(c1ccccc1)N1CCCc2ccccc21	-9	105	-2.2	18	95	i	1.1
O=C(Cc1c(Cl)cccc1Cl)Nc1cccc(S(=O)(=O)N2CCOCC2)c1	-6	99	nt	-73	137	i	1
COC(=O)c1cc2ccsc2n1Cc1nc(-c2cccc(Cl)c2)oc1C	-6	50	-1.4	nt	nt	i	1
Cc1[nH]c(C(=O)N/N=C/c2ccc(N(C)C)cc2)c(C)c1C(=O)N/N=C/c1ccc(N(C)C)cc1	-2	97	nt	-80	72	i	0.81
Cc1cccc(-n2c(C)cc(C=C3C(=O)c4ccccc4C3=O)c2C)c1	-4	99	-1.0	-7	79	nt	nt
COC(=O)c1cn(-c2ccccc2)nc1-c1ccc(OC)cc1	1	102	nt	-12	84	i	0.91
CCCCC(=O)Nc1cccc(NC(=O)c2ccc(Br)o2)c1	-2	100	9.0	-55	108	i	0.91
Cc1cc(C(=O)CCl)c(C)n1-c1ccon1	-7	102	nt	82*	103*	i	0.96
C=CCc1ccc(OCCCOc2ccc(C)c(C)c2)c(OC)c1	0	105	-0.8	19	134	i	0.91
O=C(Nc1ccc(-c2nc3cc(NC(=O)c4cccs4)ccc3o2)cc1)c1cccs1	-1	96	-0.2	-36	134	i	0.74
CC1=CC(C)(C)[N+](C)=CN1c1ccccc1	21	104	-1.0	46	176	i	1
CCOc1ccc(Cl)cc1/C=N/NC(=O)c1ccccc1	-8	109	-0.6	nt	nt	i	0.98
COc1cc(C2c3c(oc4ccccc4c3=O)C(=O)N2c2nccs2)ccc1O (centres undefined)	nt	105	nt	nt	nt	i	0.99
O=C(NCc1cccnc1)C(=O)NCC1OCCCN1S(=O)(=O)c1ccccc1 (centres undefined)	4	105	-0.4	nt	nt	i	0.94
COC(=O)c1ccccc1NC(=O)n1cc(C)cn1	-14	106	-3.4	nt	nt	i	1

Single values from the results shown.
Result for O=C(NCc1cccnc1)C(=O)NCC1OCCCN1S(=O)(=O)c1ccccc1 (centres undefined) in HSV augment primary fold: 0.94
Result for COc1ccccc1OCC(=O)Nc1cc(S(=O)(=O)N2CCCCC2)ccc1N1CCCCC1 in Insulin prom inh: -27

The list goes on.
SMILES	PKD1 kinase inh	RGS16-Gao	GALR2 agonist	Insulin prom inh	Insulin prom inh cell count	HSV augment	HSV augment primary fold
COc1ccc2ccccc2c1/C=N/NC(=S)Nc1cc(S(=O)(=O)N2CCOCC2)ccc1N1CCOCC1	0	105	1.1	-6	86	i	0.94
COC(=O)c1cc(COc2ccc3c4c(c(=O)oc3c2)CCC4)c(C)o1	-4	104	-0.3	-41	66	nt	nt
CCCc1cc(=O)n2c(nc3ccccc32)[nH]1	3	102	-1.1	44	118	i	0.87
Cc1cc(C)c2cc(C#N)c(NCCOC(=O)c3ccccc3C)nc2c1	-4	112	-1.8	-7	160	i	1.1
C/C(=N\Nc1nc(-c2ccccc2)cs1)c1cccs1	-1	101	-1.4	-12	147	i	0.83
Cc1cc(C(=O)NCc2ccc(S(N)(=O)=O)cc2)cs1	-1	103	-2.3	31	109	i	1
O=C(O)Cc1cn(-c2ccccc2)nc1-c1ccccc1	-2	102	nt	nt	nt	i	1
COC(=O)c1ccc(C2/C(=C(/O)c3ccc(OC)cc3)C(=O)C(=O)N2CC2CCCO2)cc1 (centres undefined)	4	91	0.1	nt	nt	i	0.71
CCc1cccc(C)c1NC(=S)NCC(c1cccnc1)N1CCOCC1 (centres undefined)	-10	100	-1.2	nt	nt	i	1.1
COc1ccc(OCC(O)CN2CCN(c3ccc(Cl)cc3)CC2)cc1 (centres undefined)	nt	105	nt	nt	nt	i	0.86
N#CCCN(C(=O)CN1C(=O)NC2(CCCC2)C1=O)c1ccccc1F	-6	101	-2.8	0	83	i	1
CC(=O)C1(C)OC(N)=C(C#N)C(c2ccccc2)C1(C#N)C#N (centres undefined)	2	98	1.4	-24	101	i	1.1
C[C@H](NC(=O)c1nc[nH]c1C(=O)NCc1ccccc1)C(=O)OC(C)(C)C	-6	34	nt	nt	nt	i	0.94
CCN(CC)C(=O)Cn1cnc2sc(C(=O)N3CCN(c4ccc(OC)cc4)CC3)c(C)c2c1=O	-1	102	0.3	27	81	i	0.87
O=C(O)CCC(NC(=O)c1cncc(O)c1)C(=O)O (centres undefined)	-10	102	-1.5	-35	107	i	0.95
O=C(/C=C/c1ccco1)N(Cc1ccc(F)cc1)C1CCS(=O)(=O)C1 (centres undefined)	nt	100	nt	nt	nt	i	0.92
COCCn1nnnc1C(c1cc2ccc(OC)cc2[nH]c1=O)N1CCc2ccccc2C1 (centres undefined)	0	104	-1.7	61	81	i	0.98
Cc1nnnn1/C(=C\c1ccccc1)C(=O)OCC(=O)N(C)C1CCS(=O)(=O)C1 (centres undefined)	-2	98	nt	nt	nt	i	0.9
CCC(=O)n1nc(-c2ccc(OC)cc2)nc1N	-6	93	-0.8	-25	180	i	0.99
COc1cc(-c2c(C#N)c(N)nc3c2CCCC3)cc(OC)c1OC	-10	95	-2.4	16	92	i	1
CCOc1ccc(-c2nnn(CC(=O)Nc3cc(OC)ccc3OC)n2)cc1OCC	-13	98	0.1	nt	nt	i	0.91
COC(=O)C(NC(=O)c1ccc(F)cc1)(Nc1nc(C)cs1)C(F)(F)F (centres undefined)	5	100	-1.2	68	67	i	1
Cn1cc(C(=O)N2CCc3ccccc3C2)c(=O)c2cc(S(=O)(=O)N3CCCCC3)ccc21	-9	101	-0.6	-50	113	i	0.83
COc1cc2c(cc1OC)C1(CCCC1)CNC2c1cccc([N+](=O)[O-])c1 (centres undefined)	0	105	nt	nt	nt	i	0.94
Cc1cccc(/N=C/C2=C(O)CC(C)(C)CC2=O)n1	nt	99	nt	nt	nt	i	0.98

Structures shown so far with fluorine, in the order listed:
SMILES	PKD1 kinase inh	RGS16-Gao	GALR2 agonist	Insulin prom inh	Insulin prom inh cell count	HSV augment	HSV augment primary fold
NC(=O)Nc1ccc(F)cc1	3	101	-3.5	28	158	i	0.97
COc1cccc(CNC(=O)CNC(=S)N(Cc2ccccc2)Cc2ccccc2F)c1	0	79	nt	4	112	i	1.1
N#CCCN(C(=O)CN1C(=O)NC2(CCCC2)C1=O)c1ccccc1F	-6	101	-2.8	0	83	i	1
O=C(/C=C/c1ccco1)N(Cc1ccc(F)cc1)C1CCS(=O)(=O)C1 (centres undefined)	nt	100	nt	nt	nt	i	0.92
COC(=O)C(NC(=O)c1ccc(F)cc1)(Nc1nc(C)cs1)C(F)(F)F (centres undefined)	5	100	-1.2	68	67	i	1

(next part)
SMILES	PKD1 kinase inh	RGS16-Gao	GALR2 agonist	Insulin prom inh	Insulin prom inh cell count	HSV augment	HSV augment primary fold
Cc1ccc2nc(SCc3cccc([N+](=O)[O-])c3)nc(C)c2c1	-2	103	-1.7	nt	nt	i	0.92
Cc1cc(=O)n2c(n1)NC(Nc1cccc(C)c1C)=NC2c1ccc(F)cc1 (centres undefined)	nt	98	nt	nt	nt	i	1.1
C=CCn1c(Sc2ccccc2)nc2c1c(=O)[nH]c(=O)n2C	-5	108	-2.0	-477	68	i	0.94
COc1ccc(F)cc1S(=O)(=O)Nc1cccc(C(=O)O)c1	-11	104	-0.4	nt	nt	i	1.1
CN(C)CCCNS(=O)(=O)c1ccc(N2CCC(c3ccc(Cl)cc3)=N2)cc1	-2	104	132*	54	41	i	0.47
CC1=C(C(N)=O)C(c2ccccn2)n2nc(SCc3ccccc3Cl)nc2N1 (centres undefined)	5	102	-2.5	-67	81	i	1
O=C(O)c1ccccc1-c1ccccc1C(=O)NNc1ccc([N+](=O)[O-])cc1	nt	100	nt	nt	nt	i	0.95
CC1(C)Cc2nc3[nH]c(=S)[nH]c(=O)c3cc2CO1	nt	103	nt	nt	nt	i	1.2
Cc1ccc(OCCn2cc(C#N)c3ccccc32)cc1	2	102	0.0	-276	66	i	0.84
O=C(Nc1ccnc(-c2cccnc2)n1)c1ccc(F)cc1	-5	99	nt	nt	nt	i	0.93
Cc1ccc(S(=O)(=O)N=C2SCCCS2)cc1	-7	107	-1.7	14	71	i	1
COc1ccc(OC)c(NC(=O)CS(=O)(=O)Cc2nc(-c3ccccc3C)oc2C)c1	3	102	-1.1	nt	nt	i	0.95
CCOC(=O)N1CCN(C(=O)c2ccccc2NC(=O)c2ccc(C(C)(C)C)cc2)CC1	-4	109	-0.2	-38	98	i	0.89
COc1ccc(C2C(C#N)=C(/N=C/N3CCN(C)CC3)OC3=C2C(=O)CC(C)(C)C3)cc1OC (centres undefined)	7	98	-1.4	19	103	i	1.1
CC1CCN(C(=O)CSc2nc3c(cnn3-c3ccc(Cl)cc3)c(=O)[nH]2)CC1	-11	111	-1.1	30	82	i	0.89
C=CCOc1ccc(/C=N/NC(=O)C(=O)Nc2ccccn2)cc1OC	-10	132	-1.1	-45	80	i	0.95
O=C(Cc1ccc(-n2c(=O)c3ccccc3n(Cc3cccc([N+](=O)[O-])c3)c2=O)cc1)NCC1CCCO1 (centres undefined)	-16	188	-2.1	6	77	i	1
S=c1[nH]ncn1/N=C/c1ccc(N2CCOCC2)cc1	0	91	-1.6	nt	nt	i	0.88
CCCC(=O)Nc1nc(CC(=O)OCC)cs1	0	140	nt	nt	nt	i	1
Cc1ccc(-c2c(C)n([O-])c3c([n+]2=O)CCCCC3)cc1	-8	109	-0.7	-17	125	nt	nt
CNC(=S)N/N=C/c1ccc(N2CCOCC2)s1	-3	91	nt	-58	92	i	0.9
COc1ccc(N2CCc3c(C)nc4c(OC)cccc4c32)cc1	-4	97	nt	nt	nt	i	0.7
C/C(=N\NC(=O)CN1CCN(S(=O)(=O)c2ccc(C)cc2)CC1)c1cccnc1	8	100	-0.5	nt	nt	i	0.9
COC(=O)c1nn(-c2cccc(Cl)c2)ccc1=O	-2	98	nt	35	108	i	0.89
Cc1ccc(Oc2nc(-c3ccccc3)ncc2S(=O)(=O)c2ccc(C)cc2)cc1	3	105	-0.8	-10	93	i	0.99
SMILES	PKD1 kinase inh	RGS16-Gao	GALR2 agonist	Insulin prom inh	Insulin prom inh cell count	HSV augment	HSV augment primary fold
Cc1nnc(SCC(=O)c2ccccc2)n1Cc1ccccc1	-2	104	0.1	nt	nt	i	0.98
OCCC1CN(Cc2cccn2-c2ccccn2)CCN1C1CCCCC1 (centres undefined)	-2	102	nt	nt	nt	i	1.3
CCC(CC)c1nc(C#N)c(NCc2ccccc2)o1	20	51	-0.5	-21	43	i	0.77
O=C(Cc1ccccc1)Nc1ccccc1C(=O)N1CCCCCC1	0	101	nt	nt	nt	i	0.97
CC1CCCC(NC(=O)c2ccc3c(c2)N(Cc2ccccc2)C(=O)CS3=O)C1C (centres undefined)	-3	105	-1.1	nt	nt	i	0.96
CC(=O)Nc1ccc(-c2nnc(SCc3ccccc3C#N)n2C)cc1	3	106	-0.6	nt	nt	i	0.78
CCOC(=O)N/N=C\c1ccc(OC(=O)c2ccco2)cc1	8	106	nt	33	115	i	0.93
CCN(Cc1cnn(C)c1)Cc1nc(C(c2ccccc2)c2ccccc2)no1	6	106	nt	nt	nt	i	1.1
COc1ccc(/C=N/NC(=O)COc2cccc3ccccc23)c(C(=O)O)c1OC	-6	95	0.2	33	141	i	0.97
Cn1c(=O)c2c(ncn2Cc2cccc(Cl)c2)n(C)c1=O	-5	96	-0.4	nt	nt	i	1.2
OCCC1CN(Cc2cccc3nccnc23)CCN1Cc1ccc(F)c(F)c1 (centres undefined)	-8	98	nt	nt	nt	i	0.94
Cc1cc(C)nc(SCC(=O)N/N=C/c2cccn2-c2ccc(O)cc2)n1	-5	189	-1.4	-106	70	i	1.1
COc1ccc(C(=O)c2coc3ccc(O)c(CN4CCCCC4)c23)cc1	-11	107	-1.7	nt	nt	i	0.97
